Screening results (PubChem)
PINK1 modulator – modulators of PINK1 expression; PINK1 immunofluorescence, high-content cytometry, 24 h; Potency, µM (series often up to 76.6 µM), without a hit: top-dose activation (PINK1 increase), usual class: activators; actives 0.2% (n = 410,000); active = well fitted activation curve with a large enough effect; inconclusive = small, poorly fitted or top-dose-only effect; inactive = flat fitted curve, though single readings scatter; cell line not stated here;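 also: % of control where 0% means no effect; nearly all actives have a fitted effect of over 65% in size; a mitochondrial uncoupler was the plate control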
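Compound titrations (5 concentrations, 24 h) on a stable cell line; DMSO and CCCP controls. Endpoint: fixed-cell PINK1 immunofluorescence with mitochondrial, cell and nuclear markers, scanned by microplate cytometer.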
The depositor's hits bear a star; ? = inconclusive; [ ] = another dose, or the depositor's remark. Potency is read from the fitted curve at half-maximal effect. A portion of the library. The share of hits here may be higher or lower than overall.

SMILES | PINK1 modulator
O=C(NC1CCN(Cc2ccccc2)CC1)c1ccc(Cn2c(=O)c3ccccc3n(Cc3cccc(F)c3)c2=O)cc1 | -0.1%
Cc1cc(C)cc(NC(=O)c2nnn(Cc3cccc(Br)c3)c2N)c1 | 6.7%
Brc1cccc(CNCCSc2nnnn2-c2ccccc2)c1 | -0.3%
CC(=O)c1ccc(N2CCN(S(=O)(=O)c3ccc4c(c3)C(C)(C)C(=O)N4)CC2)cc1 | 1.5%
CC(=O)N1CCOc2cc(S(=O)(=O)Nc3cc(C(F)(F)F)ccc3Cl)c(C)cc21 | 1.1%
CCc1ccccc1N(c1nc(-c2ccc(OC)c(OC)c2)no1)c1nc(-c2ccc(OC)c(OC)c2)no1 | -0.6%
Cc1ccc(Cl)cc1NC(=O)CN1C(=O)CCc2ccccc21 | 0.1%
O=C(NCc1cccs1)c1ccc(CSc2nc3cccnc3n2Cc2ccccc2F)cc1 | 0.2%
CCc1ccc(-n2c(N3CCN(c4ccc(F)cc4)CC3)nc3ccccc3c2=O)cc1 | 1.1%
O=C(CSc1nc2ccccc2n1Cc1ccccc1F)NCc1ccccc1 | 8.6%
CCc1ccc(C(=O)c2cn(CC(=O)Nc3ccc4c(c3)OCCO4)c3ccc(F)cc3c2=O)cc1 | 2.4%
O=S(=O)(c1ccccc1)c1nc(-c2cccs2)oc1SCc1ccccc1F | 3.2%
Cc1cc(N2CCC(C)CC2)nc2ccc(NC(=O)CCC(=O)N3CCN(c4cccc(C(F)(F)F)c4)CC3)cc12 | 2.9%
CCOC(=O)COc1ccc(F)cc1C(=O)c1ccn2nc(-c3ccc(C)cc3)cc2n1 | -0.8%
CCOC(=O)c1ccccc1NC(=O)COc1ccccc1-c1nnc(-c2ccccc2)o1 | 0.1%
CCC(C)Nc1sc(S(=O)(=O)CC)nc1S(=O)(=O)c1ccc(C)cc1 (stereo unspecified) | -0.4%
CCN(CC)CCCNC(=O)c1nn(-c2ccc(C)cc2)c(=O)c2c1c1ccccc1n2C | 2.0%
Fc1ccc(C(Nc2ccccc2Cl)c2nnc(-c3ccccc3Cl)o2)cc1 (stereo unspecified) | 3.9%
Cc1ccc(NC(=O)N2CCN3CCCCC3C2)cc1C (stereo unspecified) | -0.6%
COc1cccc(CN2CCC3(CCC(CNC(=O)c4cc(C)nn4C)O3)CC2)c1OC (stereo unspecified) | 1.0%
Cc1cccc(C(=O)Nc2nc3c(s2)CCCC3)c1 | 5.2%
CCOc1ccc(-c2cc(C(=O)NCCc3ccc(OC)c(OC)c3)c3c(-c4ccc(F)cc4)[nH]nc3n2)cc1 | 2.1%
CC(=O)c1cccc(NC(=O)CSc2nnc3ccc(-c4ccc(F)cc4)nn23)c1 | -4.9%
Cc1ccc2[nH]c(CSc3nnc(NC(=O)c4ccccc4C)s3)cc(=O)c2c1 | 2.9%
COc1ccc(NC(=O)Cn2c(=O)oc3cc(S(=O)(=O)NC4CCCC4)ccc32)cc1OC | -0.9%
SMILES | PINK1 modulator
Cc1ccc(Nc2c3c(nc4nncn24)CCC3)c(C)c1 | -1.2%
Cc1ccc(C(=O)Nc2nc3n(n2)C(c2ccccc2)C=C(c2ccccc2)N3)cc1 (stereo unspecified) | 1.0%
CCOc1ccc(CNC(=O)CCn2c(=O)c3cccn3c3cccnc32)cc1 | 0.3%
Cc1nc(SCC(=O)Nc2nsc(-c3ccc(C(C)(C)C)cc3)n2)c2c3c(sc2n1)CCCC3 | -1.0%
CCc1ccc(NC(=O)[C@H](CSCc2ccccc2)N2Cc3ccccc3C2=O)cc1 | 2.1%
CCOC(=O)C1(C)C=C(Nc2ccc(C)cc2)C(=O)N1c1ccccc1 (stereo unspecified) | -0.2%
Cc1ccn2c(Nc3ccc(F)cc3)c(-c3ccccn3)nc2c1 | -1.5%
COc1ccc(CNC(=O)c2cc(-c3ccc(C)c(C)c3)n[nH]2)cc1 | 0.3%
Cc1ccc(N(C)C(=O)c2cnc(N3CCOCC3)c3ccccc23)cc1C | -0.3%
COc1cccc(NC(=O)CCc2nnc3n(Cc4ccccc4Cl)c(=O)c4ccccc4n23)c1 | 1.1%
Cc1ccc(CN2COc3cc(C)c4c(oc(=O)c5ccccc54)c3C2)cc1 | -1.0%
CN(C)C(=O)c1ccc(S(=O)(=O)NCc2ccccc2Cl)s1 | 0.6%
Cc1ccc(CNS(=O)(=O)c2ccc(F)c(C(=O)Nc3ccc(C)c(F)c3)c2)cc1 | 5.2%
Cn1cc(S(=O)(=O)c2ccccc2)c(=O)c2cc(F)c(N3CCCC3)cc21 | -1.4%
Cc1nn(-c2ccc(N3CCCC3)nn2)c(C)c1CCC(=O)Nc1ccccc1 | 2.2%
Cc1ccc(Cl)cc1Nc1sc(C(=O)c2ccc(F)cc2)c(N)c1S(C)(=O)=O | ?
CCN(c1ccccc1)C1SC(=O)N(c2ccccc2)C1=O (stereo unspecified) | -0.2%
CCOc1ccc(CNC(=O)c2ccc3c(c2)nc2n3CCOC2)cc1 | 0.5%
COc1ccc(-c2oc3ncn4nc(-c5ccccc5OC)nc4c3c2-c2ccc(OC)cc2)cc1 | 2.4%
CCOc1cccc2cc(-c3nc(-c4ccccc4C)no3)c(=O)oc12 | 1.1%
O=S(=O)(Nc1ccc(-c2ccc(N3CCCCCC3)nn2)cc1)c1ccc(C(F)(F)F)cc1 | 0.1%
COc1ccccc1CNC(=O)c1ccc(N2CCCC2)c(NC(=O)NCCC(C)C)c1 | -0.8%
Cc1ccc(NC(=O)C2CCCN2S(=O)(=O)c2cccc3nsnc23)c(C)c1 (stereo unspecified) | 3.6%
CC(Oc1ccccc1)C(=O)Nc1ccc(C(=O)OCc2cc(=O)n3nc(C(C)C)sc3n2)cc1 (stereo unspecified) | 6.0%
COc1ccc2occ(CC(=O)Nc3ccc(S(=O)(=O)Nc4nccc(C)n4)cc3)c2c1 | 3.6%
SMILES | PINK1 modulator
Cc1ccc(NC(=O)/C(C#N)=C/c2ccc(C)o2)cc1 | 0.5%
N#Cc1c(C(F)(F)F)cc(-c2cccs2)nc1SCC(=O)Nc1ccccc1F | 7.0%
CCOC(=O)c1ccccc1NC(=O)Cn1c(=O)n(CCC(=O)N2CCc3ccccc3C2)c(=O)c2ccccc21 | -0.7%
COC(=O)c1cc(NS(=O)(=O)c2ccc3c(c2)OCCO3)ccc1Cl | 2.2%
CCCC(=O)NCCc1nc2ccccc2n1Cc1c(F)cccc1Cl | -0.2%
O=S(=O)(c1ccccc1)c1nnn2c1nc(NCc1ccc(Cl)cc1)c1sccc12 | -0.1%
COc1ccc(-c2cc(C(=O)Oc3ccc(Br)cc3)c3ccccc3n2)cc1 | 1.5%
CCc1nn(CC(=O)Nc2cccc(C(C)=O)c2)c(=O)c2cc3sccc3n12 | -1.6%
CCc1ccc(NC(=O)c2cnn(-c3c(C)cccc3C)c2C2CCN(C(=O)OC(C)(C)C)CC2)cc1 | -0.9%
CCN(C(=O)c1cc2c(=O)oc3ccccc3c2s1)c1cccc(C(F)(F)F)c1 | 1.4%
CCOc1ccccc1CNCc1c(C(=O)O)n(Cc2ccccc2)c2cc(OC)ccc12 | 0.0%
CCOc1cc(CNC(=O)CN2CCSc3ccccc32)cc(OCC)c1OCC | 0.3%
Cc1ccc(Cl)cc1N1CCN(C(=O)Cn2cnc3onc(-c4ccc(F)cc4)c3c2=O)CC1 | -4.1%
CCn1ccc2cc(S(=O)(=O)N3CCCN(C(=O)Nc4ccccc4C(F)(F)F)CC3)ccc21 | 0.2%
Cc1ccc(S(=O)(=O)c2cn(C)c3cc(N4CCOCC4)c(F)cc3c2=O)c(C)c1 | 2.7%
O=C(Nc1ccc2oc(-c3ccc4ccccc4c3)nc2c1)c1cccc(Cl)c1Cl | 3.6%
CCc1ccc(CNc2nc3nc(C)c(Cc4ccccc4)c(=O)n3[nH]2)cc1 | -1.2%
CCOC(=O)c1sc(N2C(=O)c3oc4ccc(F)cc4c(=O)c3C2c2cccc(OC)c2)nc1C (stereo unspecified) | 6.1%
Cc1nnc(N2CCN(C(=O)NCCC(C)C)CC2)c2nn(-c3ccc(Cl)cc3)c(C)c12 | 2.1%
Cc1nc(-c2ccc(S(=O)(=O)NCc3ccccc3Cl)cc2)co1 | 2.8%
CC(C)Oc1ccc(CNC(=O)c2ccc(NC(=O)c3nsc4ccccc34)cc2)cc1 | 6.3%
Cc1ccc(NC(=O)C2CCCN(S(=O)(=O)c3cccc4cccnc34)C2)cc1Cl (stereo unspecified) | 0.0%
Cc1ccc(NC(=O)Cn2cnc3onc(-c4ccc(F)cc4)c3c2=O)c(Cl)c1 | -1.3%
CCc1ccccc1N1C(=O)N(CC(=O)c2ccc(OC)cc2)c2ccccc2S1(=O)=O | -0.9%
CN1CCN(C2(CNC(=O)COc3ccc(C(C)(C)C)cc3)CCCCC2)CC1 | -0.1%

An excerpt of the results above, as a working copy:
SMILES | PINK1 modulator
CC(C)Oc1ccc(CNC(=O)c2ccc(NC(=O)c3nsc4ccccc34)cc2)cc1 | 6.3%
Cc1ccc(NC(=O)C2CCCN(S(=O)(=O)c3cccc4cccnc34)C2)cc1Cl (stereo unspecified) | 0.0%
Cc1ccc(NC(=O)Cn2cnc3onc(-c4ccc(F)cc4)c3c2=O)c(Cl)c1 | -1.3%
CCc1ccccc1N1C(=O)N(CC(=O)c2ccc(OC)cc2)c2ccccc2S1(=O)=O | -0.9%
CN1CCN(C2(CNC(=O)COc3ccc(C(C)(C)C)cc3)CCCCC2)CC1 | -0.1%

The main list resumes, starting 2 compounds before the break.
SMILES | PINK1 modulator
CCc1ccccc1N1C(=O)N(CC(=O)c2ccc(OC)cc2)c2ccccc2S1(=O)=O | -0.9%
CN1CCN(C2(CNC(=O)COc3ccc(C(C)(C)C)cc3)CCCCC2)CC1 | -0.1%
COc1cccc(NC(=O)/C(C#N)=C/c2c(C)n(Cc3ccccc3)c3ccccc23)c1 | 3.8%
COc1ccc(CN2CCOc3ccc(CN4CCN(CCO)CC4)cc3C2)c2ccccc12 | -0.7%
COC(=O)C1CCCCN1Cc1ccc2c(c1)CN(C(=O)c1csc(-c3cccs3)n1)CCO2 (stereo unspecified) | -0.6%
Cc1ccc(-n2ncc3c(Nc4ccccc4C)ncnc32)cc1 | 1.5%
COc1ccc(NC(=O)NC(C)c2c(-n3cccc3)sc(C)c2C)cc1OC (stereo unspecified) | 1.3%
COc1ccccc1/C=C/c1nc2ccccc2[nH]1 | 5.7%
Cc1ccc(N(Cc2cccs2)C(=O)Nc2cccc(Cl)c2)cc1 | 3.3%
COc1ccc(-c2nn(C)c3sc(C(=O)Nc4cccc(F)c4)cc23)cc1OC | 1.0%
COc1cccc(-n2c(-c3ccccc3F)nc3c(cnn3-c3ccc(C)cc3)c2=O)c1 | 3.1%
CC(C)CCNc1nc(Nc2ccccc2)c2cnn(C)c2n1 | 3.7%
CN(C)c1ccc(CNC(=O)c2ccc(Cn3c(=O)c4cccn4c4cccnc43)cc2)cc1 | 0.5%
COc1cc2c(NC3CCN(C)CC3)nc(N3CCCN(C)CC3)nc2cc1OCCN(C)CCN(C)C | -0.2%
CCc1ccc2oc(C(=O)Nc3nc(-c4ccccc4)ns3)c(C)c2c1 | 0.3%
CC(C)c1ccc(S(=O)(=O)N2CCC(n3c(C(F)(F)F)nc4cccnc43)CC2)cc1 | 0.2%
CC1CCCN(Cc2nc3c(c(=O)n(C)c(=O)n3C)n2Cc2ccc(Cl)cc2Cl)C1 (stereo unspecified) | 1.4%
O=C(Nc1ccccc1)N(Cc1cccc(Cl)c1)c1ccccn1 | 2.0%
Cn1c(=O)[nH]c2cc(-c3noc(-c4ccc(Br)cc4)n3)ccc21 | -3.0%
COc1ccc(NC(=O)C(=O)NCCc2sc(-c3ccc(Cl)cc3)nc2C)cc1 | 2.3%
CCOC(=O)c1cc2c(=O)n3ccccc3nc2n(C)c1=NC(=O)c1cc2ccccc2o1 | 2.4%
Cc1ccc(-c2noc(-c3ccccc3NC(=O)C3CC(=O)N(c4ccccc4C)C3)n2)cc1 (stereo unspecified) | 0.8%
COc1ccc(N2CCN(C(=O)c3cc(-c4ccc(C)c(F)c4)on3)CC2)cc1 | 2.0%
COc1ccc(-n2cc(C(=O)OCc3ccc(Cl)cc3)c3ccccc3c2=O)cc1 | 0.9%
CCc1ccc(NC(=O)CSc2nc3c(sc4ccccc43)c(=O)n2CCN(CC)CC)cc1 | 1.3%
CCCSc1ncc(Cl)c(C(=O)Nc2ccc(CC)cc2)n1 | 0.2%
Nc1c(-c2nc(-c3ccccc3Cl)no2)nnn1-c1ccccc1C(F)(F)F | 0.7%

Single entries from the list:
CCc1ccc2oc(C(=O)Nc3nc(-c4ccccc4)ns3)c(C)c2c1 in PINK1 modulator shows 0.3%
COc1ccc(CN2CCOc3ccc(CN4CCN(CCO)CC4)cc3C2)c2ccccc12 in PINK1 modulator shows -0.7%

Further records follow.
SMILES | PINK1 modulator
COc1cc(OC)c(NC(=O)c2cc(CN3CCOCC3)on2)cc1Cl | 1.8%
Cc1ccc(Nc2ncnc3c2cnn3-c2ccccc2)c(C)c1 | 0.9%
O=C1CS(=O)(=O)C2(C(=O)N(Cc3ccccc3)c3ccccc32)N1c1ccccc1 (stereo unspecified) | -0.1%
CCOc1cc(C(=O)NCCc2csc3nc(-c4ccc(C)cc4)nn23)cc(OCC)c1OCC | -1.0%
Cc1ccccc1N1CC(C(=O)Nc2ccc(Br)cc2)CC1=O (stereo unspecified) | 1.9%
C=CC(=O)N1CCC[C@@H](n2nc(-c3ccc(Oc4ccccc4)cc3)c3c(N)ncnc32)C1 | -1.2%[153 µM]
CCC(=O)N1CCc2cc(Br)cc(S(=O)(=O)CCC(=O)N3CCN(c4ccccc4OC)CC3)c21 | -0.4%
COc1ccc(NC(=O)C(C)Sc2cc(-c3ccccc3)nc(C)n2)cc1Cl (stereo unspecified) | 2.7%
Cc1ccc2c(c1)CN(CCC(=O)NCc1cc(C)n(C)n1)CC(C)O2 (stereo unspecified) | -0.8%
